Ecoli growth: E. coli growth inhibition, primary screen, OD600 | Escherichia coli growth, 23 h; active compounds read low | 330,000 tested, 0.21% active | OD600 absorbance (test concentration not listed) | AID 1053175, 2014;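 active means OD600 absorbance below the run mean of sample wells minus 3.6 SD, in any replicate, cut at about 0.56 in these data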;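 further: stock transfer was 300 nL into about 60 µL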
Vif TR-FRET: inhibitors of Vif binding to APOBEC3G peptide, primary screen, biochemical, TR-FRET, GST-Vif 1-94, biotin-A3G peptide, dose response retest (AID 1117319); Virion infectivity factor (Human immunodeficiency virus type 1 group M subtype B (isolate …; TR-FRET GST-Vif / biotin-A3G peptide binding; higher % means a stronger effect; test concentration not given here; strong numbers were not always called active; inhibition, %, or IC50 in µM where a hit was titrated; 260,000 tested, 0.57% active;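 active means above the screen mean plus three standard deviations and confirmed in dose response; inconclusive means results disagree or hit not tested in dose response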;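 further: Vif residues 1-94 fused to GST binding biotinylated APOBEC3G peptide 110-148; 0% = full assay without inhibitor and 100% = GST in place of GST-Vif; retest series ran down from 100 µM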
MLL AF4-AF9 inh: inhibitors of AF4 peptide binding to AF9, primary screen, biochemical, AlphaScreen, biotin-AF4 peptide, FLAG-AF9, single point. 350,000 tested, 0.47% active. inhibition, % at 10 µM. Protein AF-9 (Homo sapiens), P42568;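 active means every replicate reaching a set inhibition limit, whatever the replicate mean, cut at about 25% in these data; inconclusive means mean inhibition reaches that limit but some replicates miss it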;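 further: 0% = plate neutral control median and 100% = total signal loss; the record names both 10 and 1 µM as test concentration; the first replicate is given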
HNF4A DNA FP: change in binding of human HNF4A to DNA, primary screen, biochemical, fluorescence polarization, FITC-DNA; 1 h; 360,000 tested, 0.3% active; activity change, % at 10 µM; Hepatocyte nuclear factor 4-alpha (Homo sapiens), P41235; in the data active means activity change above about 30%, passing the limit was not always enough;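 further: controls were the assay level and a saturating level of protein; the project sought stronger binding though the title names inhibitors; some compounds called inactive have numbers as strong as hits; positive values seem to mean higher polarization but the record does not say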
Target sequence (P41235 whole entry, looked up): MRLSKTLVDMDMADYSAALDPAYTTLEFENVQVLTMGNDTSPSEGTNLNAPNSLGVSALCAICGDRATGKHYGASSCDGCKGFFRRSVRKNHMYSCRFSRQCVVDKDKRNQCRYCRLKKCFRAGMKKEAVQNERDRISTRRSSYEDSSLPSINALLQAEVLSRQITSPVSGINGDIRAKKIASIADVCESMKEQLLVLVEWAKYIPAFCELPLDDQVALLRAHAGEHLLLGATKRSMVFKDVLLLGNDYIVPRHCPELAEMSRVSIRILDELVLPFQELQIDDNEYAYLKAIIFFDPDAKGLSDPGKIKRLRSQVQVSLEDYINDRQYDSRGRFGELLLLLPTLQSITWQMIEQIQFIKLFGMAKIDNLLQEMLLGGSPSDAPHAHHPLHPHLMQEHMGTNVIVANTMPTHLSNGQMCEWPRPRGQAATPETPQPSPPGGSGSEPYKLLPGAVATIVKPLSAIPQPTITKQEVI
ALR inh: inhibitors of human ALR sulfhydryl oxidase, primary screen, biochemical, H2O2 detection, HRP-luminol luminescence, single point. FAD-linked sulfhydryl oxidase ALR (Homo sapiens), P55789. purified ALR, DTT oxidation. inhibition, % (test concentration not listed). 290,000 tested, 3.8% active;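 active means mean and each replicate at 75% or more; inconclusive means only one of the two met; inactive means neither met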;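 further: stock transfer was 7.5 nL into about 7.5 µL; 0% = neutral wells and 100% = wells with inactivated enzyme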
Target sequence (P55789 whole entry, looked up): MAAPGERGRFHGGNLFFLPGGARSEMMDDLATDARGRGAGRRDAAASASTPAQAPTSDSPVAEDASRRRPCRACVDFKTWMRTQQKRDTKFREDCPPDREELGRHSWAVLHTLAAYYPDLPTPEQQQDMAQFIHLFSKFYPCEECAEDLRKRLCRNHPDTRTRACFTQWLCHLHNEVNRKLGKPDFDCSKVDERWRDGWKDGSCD
Ecoli rRNA inh: reduced GFP signal of wild-type E. coli, primary screen, bacterial rRNA inhibitor project, GFP/RFP fluorescence, OD600, single point; GFP signal change (wild-type ribosome), % (test concentration not listed); 350,000 tested, 1.6% active; E. coli WT GFP vs humanized-ribosome RFP mutants, 24 h; active compounds read low; DMSO median 0, no signal -100;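 active means significant combined selectivity score with lowered wild-type GFP, culture density cut under 30%, mutant RFP and density less affected; inactive means any of these conditions unmet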; further: one replicate is shown; some compounds called inactive have numbers as strong as hits
FGF22 binding: binders of human FGF22 protein, primary screen, FGF22 synaptogenesis inhibitor project, biophysical, thermal shift, single point; recombinant FGF22 thermal shift, SYPRO orange fluorescence; percent of sucrose octasulfate shift, DMSO zero; calls only at 9.99 µM; 340,000 tested, 1.5% active; AID 651658, 2012;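 active means melting point raised past a set limit in the mean and every replicate; inconclusive means no clear call; three in four hits are not shown here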
Target sequence (Q9HCT0 whole entry, looked up): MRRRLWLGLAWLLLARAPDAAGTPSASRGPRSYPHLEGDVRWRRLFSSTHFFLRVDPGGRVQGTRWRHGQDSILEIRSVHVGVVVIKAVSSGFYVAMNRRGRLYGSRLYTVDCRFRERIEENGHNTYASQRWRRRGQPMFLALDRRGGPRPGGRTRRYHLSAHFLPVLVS
Ecoli rRNA inh OD600: also measured in Ecoli rRNA inh; calls as there; OD600 change, %; measured here: OD600 growth;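 optical density of the mix in the first replicate; 0 = DMSO median and -100 = no signal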
Ecoli rRNA inh RFP: recorded beside Ecoli rRNA inh, whose call it bears; RFP signal change, %; measured here: RFP humanized mutant strains;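 first replicate; 0 = DMSO median and -100 = no signal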
Active calls of the source: *; i = inactive; ? = inconclusive; . = no result given.

#	canonical_smiles	Ecoli growth	Vif TR-FRET	MLL AF4-AF9 inh	HNF4A DNA FP	ALR inh	Ecoli rRNA inh	Ecoli rRNA inh OD600	Ecoli rRNA inh RFP	FGF22 binding
1	CC1CC(C)CN(C(=O)C2CCCN(S(=O)(=O)c3cccc4nonc34)C2)C1 (configuration not stated)	0.71	2%	.	6.8	-13	.	.	.	.
2	FCCCOc1ccc(/C=N/OCc2c(Cl)cccc2Cl)cc1	.	?	.	0.9	-6	.	.	.	.
3	CC(=O)Nc1ccccc1-c1cccc2nccn12	.	.	-1.4	2.6	.	11	12	3.5	i
4	Cc1ccc(OCCN2CCN(C(=O)CCC(=O)Nc3nnc(CC(C)C)s3)CC2)cc1	0.66	5%	-1.4	-2.8	-4	3	0	6.1	i
5	COc1ccc(-c2cc(C(=O)NCCCN3CCCC3=O)c3ccccc3n2)cc1OC	0.68	.	-3.0	-4.1	.	-7	-1	-1.7	i
6	CCC(C(=O)Nc1ccncc1)c1ccccc1 (configuration not stated)	0.68	1%	.	0.2	-9	.	.	.	.
7	COc1ccc(-n2nc([N+](=O)[O-])c(=NCc3ccc4c(c3)OCO4)n2O)cc1	0.68	.	5.6	3.2	-6	11	18	10	i
8	COc1cc(OC)cc(C(=O)NC(=S)NNC(=O)[C@H]2C[C@@H]2c2ccccc2)c1	0.65	-7%	1.5	-3.4	99*	.	.	.	i
9	C[C@@H]1CN([C@H](C)CO)S(=O)(=O)c2ccc(C#CC3(O)CCCC3)cc2O[C@@H]1CN(C)C(=O)c1ccccc1	.	.	5.0	.	.	1	-3	-0.3	i
10	O=C(C[C@H]1C[C@@H]2c3cc(NS(=O)(=O)c4ccc(F)cc4)ccc3O[C@@H]2[C@@H](CO)O1)NCCN1CCCCC1	.	.	6.1	.	.	3	11	-0.9	i
11	C[C@@H]1CCCCO[C@@H](CN(C)C(=O)Nc2ccc(C(F)(F)F)cc2)[C@H](C)CN([C@H](C)CO)C(=O)c2cc(NS(=O)(=O)c3ccc(F)cc3)ccc2O1	.	.	-0.3	.	.	5	6	-1.8	i
12	Cn1nnnc1SCc1ccc(C(=O)Nc2nccs2)cc1	0.72	15%	.	0.9	99*	.	.	.	.
13	C[C@H]1CN([C@@H](C)CO)C(=O)c2cc(-c3ccc(F)cc3)cnc2O[C@H]1CN(C)C(=O)c1ccccc1F	.	.	-7.8	.	.	4	10	-1.8	i
14	O=S1(=O)CC2SC(=S)N(c3ccccc3)C2C1 (configuration not stated)	0.68	-4%	-3.0	2.1	-3	3	15	1.3	i
15	Cc1cccc(NC(=O)C2CCN(C(=O)c3ccc(F)cc3)CC2)n1	0.67	.	-18	-3.0	-1	12	20	0.5	i
16	COc1ccccc1NC(=O)C1C2CCCCC21 (configuration not stated)	0.71	28%	.	-2.3	.	.	.	.	.
17	CCOC(=O)COc1cc2oc(=O)cc(C)c2cc1[N+](=O)[O-]	0.64	0%	-5.6	1.0	-8	5	6	-1.3	i
18	CCc1cccc(C)c1NC(=O)C1C2CCC(O2)C1C(=O)O (configuration not stated)	0.68	-7%	.	-3.0	-1	.	.	.	.
19	CCCSC1=C(C#N)C2(CCCCC2)C(C#N)=C(N)N1	0.65	.	3.2	8.4	26	-36	-54	-4.1	i
20	CC(=O)Nc1ccc2c(c1)nc1n2CCSC1	0.69	-1%	.	-1.8	99*	.	.	.	.
21	O=C(NCc1ccccc1)C(c1ccc(C(F)(F)F)cc1)n1c(=O)c(-c2ccccc2)nc2ccccc21 (configuration not stated)	.	.	1.2	-1.6	.	9	7	-1.3	i
22	C=CCn1c(SCC(=O)c2cc(C)n(CCOC)c2C)nc2sc(C)c(C)c2c1=O	0.73	?	.	4.9	-9	.	.	.	.
23	COc1ccc(S(=O)(=O)Nc2ccccc2OC)cc1N=Nc1c(O)[nH]c(=S)[nH]c1=O	0.77	1%	-0.1	0.5	-1	20	15	5.2	i
24	COc1ccc(C2(CNC(=O)c3ccc(OC)c([N+](=O)[O-])c3)CCCCC2)cc1OC	0.67	10%	4.0	1.1	1	.	.	.	i
25	CCOC(=O)C1Oc2ccccc2C(c2ccc(F)cc2)=C1C(=O)OC (configuration not stated)	0.7	-2%	7.2	-4.3	.	-16	-31	-6.9	i

Some values from the results shown.
FCCCOc1ccc(/C=N/OCc2c(Cl)cccc2Cl)cc1 in ALR inh: -6
Cc1cccc(NC(=O)C2CCN(C(=O)c3ccc(F)cc3)CC2)n1 in Ecoli rRNA inh RFP: 0.5
Cn1nnnc1SCc1ccc(C(=O)Nc2nccs2)cc1 in Ecoli growth: 0.72
CC(=O)Nc1ccc2c(c1)nc1n2CCSC1 in ALR inh: 99*

Arranged by heavy-atom count (low to high): some entries from above
#	canonical_smiles	Ecoli growth	Vif TR-FRET	MLL AF4-AF9 inh	HNF4A DNA FP	ALR inh	Ecoli rRNA inh	Ecoli rRNA inh OD600	Ecoli rRNA inh RFP	FGF22 binding
18	CCc1cccc(C)c1NC(=O)C1C2CCC(O2)C1C(=O)O (configuration not stated)	0.68	-7%	.	-3.0	-1	.	.	.	.
22	C=CCn1c(SCC(=O)c2cc(C)n(CCOC)c2C)nc2sc(C)c(C)c2c1=O	0.73	?	.	4.9	-9	.	.	.	.
5	COc1ccc(-c2cc(C(=O)NCCCN3CCCC3=O)c3ccccc3n2)cc1OC	0.68	.	-3.0	-4.1	.	-7	-1	-1.7	i
9	C[C@@H]1CN([C@H](C)CO)S(=O)(=O)c2ccc(C#CC3(O)CCCC3)cc2O[C@@H]1CN(C)C(=O)c1ccccc1	.	.	5.0	.	.	1	-3	-0.3	i

Continuation:
#	canonical_smiles	Ecoli growth	Vif TR-FRET	MLL AF4-AF9 inh	HNF4A DNA FP	ALR inh	Ecoli rRNA inh	Ecoli rRNA inh OD600	Ecoli rRNA inh RFP	FGF22 binding
26	CCN(CC)C(=O)CSc1ncccc1-c1nc2ccccc2[nH]1	0.66	-14%	-0.3	11	-6	2	10	13	i
27	CCS(=O)(=O)Nc1ccc2c(c1)C(=O)N(C)C[C@H](OC)[C@@H](C)CN(Cc1nccs1)[C@H](C)CO2	.	.	-1.6	.	.	0	1	0.1	i
28	O=C(NCc1ccco1)c1ccccc1Nc1ccc(F)cc1	0.62	7%	.	1.4	99*	.	.	.	.
29	O=C(/C=C/c1ccc(Br)cc1)Nc1ccc(S(=O)(=O)Nc2ncccn2)cc1	0.72	0%	-1.4	1.6	.	2	4	-5.7	i
30	Cc1nc(-c2ccccc2)sc1-c1ccnn1C	0.72	6%	2.5	0.7	6	-20	-29	-7.7	i
31	On1cnnc1-c1ccccc1	0.73	0%	.	0.5	1	.	.	.	.
32	NS(=O)(=O)c1cccc(NC(=O)CSc2nnc(-c3ccncc3)n2C2CC2)c1	0.69	.	-1.8	-0.7	2	0	8	-1.7	i
33	C[C@H](CO)N1C[C@H](C)[C@H](CN(C)C(=O)C2CCOCC2)Oc2cc(C#Cc3ccncc3)ccc2S1(=O)=O	.	.	-1.7	.	.	2	1	-1.2	i
34	COCCN(C(=O)CSc1nnc(-c2ccc(C)c(C)c2)o1)c1c(N)n(CC(C)C)c(=O)[nH]c1=O	0.63	-2%	-20	2.3	4	4	14	2.7	i
35	O=C(CN(Cc1ccc(F)cc1)C(=O)CNS(=O)(=O)c1ccc(Cl)cc1)NCC1CCCO1 (configuration not stated)	0.73	-8%	0.2	0.6	.	2	13	2.5	.
36	Cc1ccc(N2C(=O)CN(Cc3cccs3)C2=S)cc1C	0.68	.	0.1	7.8	96*	7	11	0.0	i
37	C=CCOC(=O)C1=C(C)N(C)C(=O)NC1c1cc2c(cc1Br)OCO2 (configuration not stated)	0.71	3%	.	-0.4	3	.	.	.	.
38	O=S(=O)(N[C@@H]1CC[C@@H](CCn2cc(Cc3ccccc3)nn2)O[C@H]1CO)c1ccccc1F	.	.	2.8	.	.	-5	-4	-0.8	i
39	Cc1ccc(S(=O)(=O)/C(C#N)=C/c2ccccc2OCc2ccccc2)cc1	0.65	.	.	-1.4	-1	.	.	.	.
40	CCN(C(=O)c1ccc(S(=O)(=O)N2CCC(C)CC2)cc1)C1CCS(=O)(=O)C1 (configuration not stated)	0.68	-6%	0.1	-0.8	-4	7	6	-0.4	i
41	CN1CCN(c2nc(Nc3cccc(C(F)(F)F)c3)nc(N3CCOCC3)n2)CC1	0.72	4%	.	-1.6	17	.	.	.	.
42	CCc1nc2ccc(C(=O)NCCC(C)C)cn2c1N(C)Cc1ccc(OC)cc1	.	.	2.8	-0.2	.	-16	-37	-4.0	i
43	CCCc1cc(=O)oc2c(C)c(OC(C)C(=O)NCCN3CCOCC3)ccc12 (configuration not stated)	0.68	.	-2.0	1.7	-2	4	6	0.0	i
44	C[C@@H]1CN([C@H](C)CO)C(=O)c2cc(NC(=O)C3CCCCC3)ccc2O[C@H]1CN(C)Cc1ccc(C(=O)O)cc1	.	.	-3.0	.	.	4	17	0.0	i
45	COc1ccc(C2NC(=O)CS2)cc1 (configuration not stated)	0.7	3%	.	-1.7	56	.	.	.	.
46	C[C@@H]1CN([C@@H](C)CO)C(=O)c2cc(-c3ccc(C#N)cc3)cnc2O[C@H]1CN(C)CC1CCCC1	.	.	0.0	.	.	4	6	-1.6	i
47	CC(NC1CCCCC1)C(=O)NN=C(c1ccccc1)c1ccccc1 (configuration not stated)	.	1%	3.8	3.9	8	-25*	-20*	-2.2*	i
48	Cc1cc(NC(=O)c2cccc(Br)c2)no1	0.7	.	1.7	-0.4	-1	-9	-9	-5.1	i
49	O=C(C[C@H]1CC[C@@H](NC(=O)c2cccc(F)c2)[C@H](CO)O1)Nc1nccs1	.	.	0.5	.	.	0	4	-2.5	i
50	CC(C)c1ccc(C2C3=C(COC3=O)Nc3cc4c(cc32)OCO4)cc1 (configuration not stated)	0.74	-5%	-1.5	4.2	.	-5	14	-8.8	i
51	Cc1cc(C)c(S(=O)(=O)c2c(C)cccc2C)c(Cl)n1	0.63	-1%	.	2.3	-20	.	.	.	.
52	CCCCOc1ccc(CC2CCC(=O)NC2=O)cc1 (configuration not stated)	0.63	11%	-2.8	3.1	-5	.	.	.	.

Bioassay records as filed in PubChem.

An excerpt. The share of hits here may be higher or lower than overall.
